# Bioassay records: PubChem, several laboratories
# RN4220 kill: S. aureus RN4220 growth inhibition; OD600, 16 h; inhibition, % (no concentration beside the values); actives 0.33% (n = 330,000);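 active = z-score of -3 or lower and OD600 up to 0.18 on both plates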;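 note: plate controls were untreated cells for no effect and reference antibiotic for full effect; stock transfer was 100 nL into about 80 µL; one replicate is shown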
# Mtb hypoxia rep: Mtb hypoxia fluorescent reporter inhibition; fluorescence inhibition, % (test concentration not listed); M. tuberculosis hypoxia-regulated fluorescent reporter, fluorescence; actives 0.1% (n = 300,000);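 active = 35 to 45% if threefold the growth effect, above 45% if 1.5-fold the growth effect; inactive = the rest, general growth blockers included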;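 note: wells of about 50 µL received 100 nL stock; 0% = vehicle wells and 100% = reference inhibitor wells; whole bacteria with a GFP reporter of the hypoxia response; strong numbers were not always called active; many hits fall short of the cut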
# Sa ugtP lethal: kills S. aureus RN4220 lacking UgtP. S. aureus RN4220 ugtP deletion, OD600 growth, 16 h; some inactives read as strong as hits. growth inhibition, % (no concentration beside the values). actives 0.54% (n = 330,000);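 active = z-score under -3 and OD600 up to 0.15 on both plates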;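 note: plate controls were untreated wells for no effect and antibiotic for full effect; wells of about 80 µL received 100 nL stock; the first replicate is given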
# Bead autofluor: flagged as autofluorescent in microsphere protease counterscreen; compound autofluorescence counterscreen, microsphere flow cytometry; active compounds read high; actives 3.1% (n = 360,000); AID 624483; fluorescence intensity (test concentration not listed);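 active = at least 3 SD above the mean of all compounds, about 16000 in these data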;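 note: 100 nL of 1 mM stock went into each well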
# PrP UTR inh: inhibition of PrP 5' UTR reporter expression. cell-based PrP 5' UTR mRNA reporter, plate reader. inhibition, % (no concentration beside the values). actives 0.35% (n = 340,000);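 active = every replicate at 50% or more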;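 note: 0 = median of the neutral control wells; tested in H4 reporter cells; numbers are from one replicate; inactives centre near -14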
# BJeLR lethal: BJeLR cell viability loss | BJeLR (HRASV12) viability, CellTiter-Glo ATP luminescence, 48 h; reference of the scale not given here | inhibition, % (concentration not given with the values) | actives 0.17% (n = 300,000) | AID 1554;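 active = replicate mean above 50%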;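 note: 50 nL library stock added to about 25 µL; numbers are from one replicate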
# Mtb hypoxia rep growth: also measured in Mtb hypoxia rep; calls as there; growth inhibition, %; measured here: M. tuberculosis growth (absorbance);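 0% = vehicle and 100% = reference antibiotic; read after six days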
# The depositor's hits bear a star; nt = no result given. Hits appear at their usual frequency (roughly 4% active in at least one column).
SMILES,RN4220 kill,Mtb hypoxia rep,Mtb hypoxia rep growth,Sa ugtP lethal,Bead autofluor,PrP UTR inh,BJeLR lethal
CCC/C(=N\NC(=O)c1csc(C)c1C)c1cccs1,nt,nt,nt,nt,3123,-47,-8
Cc1cnc(C(=O)OCC(=O)c2ccc(F)cc2)cn1,1.1,0,0,7,5588,-25,-2
CC(C)(C)CC(=O)N1CCN(c2ccc(S(=O)(=O)N3CCOCC3)cc2[N+](=O)[O-])CC1,2.6,8,2,-1,8215,2,nt
Cc1cc(C)n2nc(SCC(=O)c3c(N)n(CC(C)C)c(=O)n(C)c3=O)nc2n1,3.3,5,13,4,4038,-10,2
CCCc1nc2cc(Cl)c([N+](=O)[O-])cc2o1,2.2,16,5,8,4527,-52,-9
CCN1CCN(C(=O)C2CCN(C(=O)Nc3ccccc3)CC2)CC1,2.6,7,-4,5,3985,-7,nt
O=C(CSc1nccn1-c1cccc(Cl)c1)NO,1.8,6,10,12,5658,-9,-16
O=C(N/N=C/c1c(O)ccc2ccccc12)c1ccc(Br)o1,nt,nt,nt,nt,5595,39,4
NC(=O)c1c[nH]c2ccccc12,0.5,nt,nt,2,5483,-20,-12
O=C(O)COc1ccccc1/C=N/NC(=O)CSc1nnc(SCc2ccccc2)s1,nt,nt,nt,nt,4524,4,0
C/C=C/C(=O)OCC(=O)Nc1ccc(OC)c(Cl)c1,2.3,-2,-2,-2,9244,4,-8
CCc1nc(N2CCN(Cc3ccc4c(c3)OCO4)CC2)c2oc3ccccc3c2n1,13,9,11,-10,9480,-18,5
OCc1cnc[nH]1,3.6,4,-2,-2,4152,-7,2
CCOC(=O)c1sc(NC(=O)Nc2ccc(Cl)cc2)nc1C,1.1,11,12,-20,7708,-65,-8
CCOc1ccccc1NC(=O)CCS(=O)(=O)c1ccc(OC)cc1,3.2,10,7,5,2236,-6,9
Cn1c(SCC(=O)Nc2ccc3[nH]c(=O)[nH]c3c2)nnc1-c1ccccc1,0.2,0,2,2,5181,-6,3
COC(=O)c1ccccc1NC=C1CCc2c(c(C)nn2-c2ccccn2)C1=O,25,8,14,12,nt,nt,nt
N#CC1=C(N)Oc2cc(N)ccc2C1c1cc(Br)cs1 (configuration not stated),11,-2,-3,-4,4525,-8,45
CCN(CC)C(=O)CSc1nc2ccc(NC(=O)CSc3nnc(COc4ccccc4C)n3C)cc2s1,1.5,10,12,-15,2870,5,-6
Cc1nc2ccc(NC(=O)N3CCOCC3)cc2nc1C,-1.6,9,7,3,3247,0,8
COc1cccc(C(=O)N2CCN(C(=O)c3cccs3)CC2)c1OC,5.0,nt,nt,6,2980,3,-4
Cc1cc(C=O)c(C)n1-c1ccc(N2CCOCC2)cc1,2.3,nt,nt,-2,2651,2,-1
CN(C)C(CNC(=O)CCCN1C(=O)c2cccc3cccc(c23)C1=O)c1ccccc1 (configuration not stated),-0.1,-1,0,7,3545,-7,-2
CCN(CC)S(=O)(=O)c1ccc(Cl)c(C(=O)N2CCc3ccccc32)c1,21,1,-3,22,2499,3,nt
COC(=O)c1ccc(CNC(=O)c2ccc3c(c2)S(=O)(=O)N=C2CCCCCN23)cc1,-1.3,18,4,0,4845,-5,nt
COc1ccccc1CNC(=O)C1CCN(Cc2nc(-c3cccc(Cl)c3)oc2C)CC1,7.2,5,6,-9,7001,-16,-6
O=C1c2ccccc2C(=O)N1c1cccnc1,1.0,4,5,7,4351,-14,-9
COC(=O)c1cc(S(=O)(=O)NCC2CCN(Cc3cccc(F)c3)CC2)c[nH]1,1.8,-7,-6,9,4088,-32,8
CN(C(=O)COC(=O)CNC(=O)c1ccc2ccccc2c1)c1c(N)n(Cc2ccccc2)c(=O)[nH]c1=O,-1.6,4,-2,13,5288,-18,5
CCOC(=O)C(=O)CC(=O)c1ccc2c(c1)OCCO2,1.7,2,-4,0,2551,-24,-7
CCCc1cc(=O)oc2c(C)c(OCC(=O)N3C[C@H]4C[C@@H](C3)c3cccc(=O)n3C4)ccc12,1.2,nt,nt,-8,4299,-28,0
CCC(NC(=O)Nc1nnc(C(F)(F)F)s1)(C(F)(F)F)C(F)(F)F,75,nt,nt,88*,3077,-21,28
O=C(COc1ccccc1)NC(=S)Nc1cccc([N+](=O)[O-])c1,3.3,16,8,13,2079,-25,7
Cc1cccc(C)c1NC(=O)COC(=O)c1cc(=O)c2ccccc2o1,2.1,-4,-2,-11,4254,-2,-15
C(=NNc1nc2ccccc2[nH]1)c1cccc2cccnc12,8.8,3,4,-15,nt,nt,nt
CCC(C)NCCCCOc1cc(C)cc(C(C)C)c1 (configuration not stated),2.4,13,10,3,1953,-15,-2
COc1ccc(N(CCC#N)S(=O)(=O)c2ccc(Cl)cc2)cc1,5.8,6,6,9,19705*,0,-1
COc1ccccc1NS(=O)(=O)c1ccc(C)c(C(=O)Nc2cc(C)on2)c1,5.9,4,0,2,4478,4,nt
CCN(C(=O)COC(=O)CNC(=O)c1ccc(C)s1)c1ccccc1,5.5,2,1,5,4655,-27,-7
COC(=O)NN=Cc1cc(Br)ccc1OCc1ccccc1,3.1,-6,-12,20,nt,nt,nt
CCN(C(=O)c1cc2ccccc2oc1=O)c1cccc(C)c1,0.5,-5,5,0,20635*,-41,6
COc1ccc(C2=NOC(C(=O)NC(C)C)C2)cc1 (configuration not stated),3.8,9,7,8,12116,-35,-9
CCOC(=O)c1[nH]cnc1C(=O)NCc1ccccc1,2.0,-5,1,-3,4153,-8,-11
COC(=O)CC1(C(=O)OC)Oc2ccc(Br)cc2C(=O)N1c1ccc(Br)cc1Cl (configuration not stated),8.2,0,2,26,6109,-35,-5
CCOC(=O)CN1CC23C=CC(O2)C(C(=O)NC2CCCC2)C3C1=O (configuration not stated),0.3,nt,nt,-6,6051,-23,-12
Cc1cc(N(CCCl)CCCl)ccc1C=NNC(=O)Cc1cc(=O)oc2cc(O)ccc12,-0.5,-6,-1,-21,2934,-9,nt
CN(C)S(=O)(=O)n1cnc(C2C3C(=O)OCC3C[C@@]23N=CN(Cc2ccccc2)C3=O)c1 (some centres not stated),5.2,6,4,-6,nt,nt,nt
CCOc1cc(-c2noc(N)c2C(=O)OC)cc(OCC)c1OCC,5.2,4,0,10,15714,-10,-15
Cc1ccc(NC(=O)c2ncn(CC(=O)NCc3ccc4[nH]ccc4c3)n2)cc1C,5.3,-6,9,10,3036,-8,nt
CCOC(=O)C1(Cc2ccccc2)CCCN(Cc2ccncc2)C1 (configuration not stated),7.8,7,12,7,5849,-7,-1
CCNC(=O)COC(=O)/C=C/c1cccc([N+](=O)[O-])c1,nt,nt,nt,nt,4894,-26,-15
CC(=O)Oc1ccc(C)cc1N1C(=O)c2ccc(C(=O)O)cc2C1=O,-8.2,0,8,-1,nt,-22,-1
CCOc1ccc(-c2cc(C(=O)NN=C(C)c3cccnc3)c3ccccc3n2)cc1,2.6,-2,-3,9,nt,nt,nt
Cc1ccccc1NC(=O)/C=C/c1ccc([N+](=O)[O-])s1,13,12,9,-1,2253,-2,37
O=C1CC(C(=O)Nc2ccc(F)cc2)S/C(=N\N=C\c2ccco2)N1 (configuration not stated),nt,nt,nt,nt,2508,-32,18
O=C(CCNS(=O)(=O)c1cccc2nsnc12)NCc1cccs1,2.7,6,3,3,4150,-45,2
C=C(C)COc1ccc(-c2n[nH]c(C)c2-c2ccc(OC)cc2)c(O)c1,-4.3,-4,3,-6,3227,4,8
Cc1cc(C)nc(SCc2ccc(C(=O)NN=C3C4CC5CC(C4)CC3C5)cc2)n1,7.5,4,0,0,2324,-20,8
O=C(COc1cccnc1[N+](=O)[O-])N1CCN(C(=O)c2ccco2)CC1,4.0,10,8,0,5235,-18,-5
O=C(Nc1ccc(Cl)cc1)N1CCC(c2nc(-c3ccccc3Cl)no2)CC1,-0.5,nt,nt,2,5015,-16,7

# Later entries
SMILES,RN4220 kill,Mtb hypoxia rep,Mtb hypoxia rep growth,Sa ugtP lethal,Bead autofluor,PrP UTR inh,BJeLR lethal
CN(C(=O)COC(=O)c1ccccc1C(=O)N1CCN(c2ccccc2)CC1)c1ccccc1,2.5,1,15,9,5185,-20,7
Cc1ccccc1-n1cc(-c2ccc(Br)cc2)nc1SCC(N)=O,nt,nt,nt,nt,5206,-44,11
O=c1[nH]c(CN2CCN(c3ccccn3)CC2)nc2c(Br)cc(Br)cc12,0.8,1,0,1,3608,-15,-5
O=C(O)c1cccc2c1C(=O)c1ccc(-c3ccc(Cl)c(C(F)(F)F)c3)cc1S2(=O)=O,-8.6,1,10,-8,2896,-5,nt
COc1ccc(NC(=S)N(CCN(C)C)C(C)c2ccco2)cc1Cl (configuration not stated),2.0,-7,3,3,2137,-24,-6
Cc1ccc2nc(C)cc(NCCO)c2c1,3.5,nt,nt,2,4504,-3,-10
COc1cccc(C(C)NC(=O)Nc2cc(Cl)ccc2OC)c1 (configuration not stated),6.5,9,4,12,4090,-39,nt
Cc1cc(Cl)ccc1OCC(=O)NN=Cc1ccncc1,-0.2,6,15,2,nt,nt,nt
Cc1ccc(Cl)cc1N1CCN(C(=O)C2CCCN(S(=O)(=O)c3cnc[nH]3)C2)CC1 (configuration not stated),-5.3,2,5,-3,4698,-25,-7
Nn1c(SCC(=O)Nc2cccc(C(F)(F)F)c2)nncc1=O,5.0,4,1,18,5436,-9,-7
COc1cccc(CNC(=S)Nc2ccc(Cl)cc2C)c1,2.2,15,13,2,3707,-6,-3
CCOc1ccc(CN(C)C(=O)[C@H](Cc2ccccc2)NC(=O)OCc2ccccc2)cc1OC,-6.9,0,3,-1,4527,-2,-15
COCCN(C(=O)CCC(=O)Nc1cc(C)on1)C(C(=O)NC1CCCC1)c1ccc(C(C)C)cc1 (configuration not stated),0.1,13,10,0,5036,-8,3
COC(=O)c1c(C(=O)OC)c2n(c1C)CCC2,1.6,-4,17,-1,8424,-21,-6
COc1cc(C2CC(=O)C=C(O)C2)cc(OC)c1OC (configuration not stated),6.9,6,3,10,6965,-16,-2
CN1CCN(c2ccc(-c3ccnn3C(=O)Nc3ccccc3)cc2)CC1,4.2,17,7,3,2353,-43,-2
CNC(=O)COc1ccccc1C(=O)Nc1ccc2c(c1)oc1ccccc12,-2.7,-9,1,-14,16632*,-17,9
Cc1ccc(S(=O)(=O)C/N=C(/NC(=S)N(c2ccccc2)c2ccccc2)c2ccccc2)cc1,nt,nt,nt,nt,8785,-3,12

# In a second layout: results already given
Cc1ccc(S(=O)(=O)C/N=C(/NC(=S)N(c2ccccc2)c2ccccc2)c2ccccc2)cc1
  RN4220 kill: nt
  Mtb hypoxia rep: nt
  Mtb hypoxia rep growth: nt
  Sa ugtP lethal: nt
  Bead autofluor: 8785
  PrP UTR inh: -3
  BJeLR lethal: 12

COc1cccc(CNC(=S)Nc2ccc(Cl)cc2C)c1
  RN4220 kill: 2.2
  Mtb hypoxia rep: 15
  Mtb hypoxia rep growth: 13
  Sa ugtP lethal: 2
  Bead autofluor: 3707
  PrP UTR inh: -6
  BJeLR lethal: -3

COc1ccc(NC(=S)N(CCN(C)C)C(C)c2ccco2)cc1Cl (configuration not stated)
  RN4220 kill: 2.0
  Mtb hypoxia rep: -7
  Mtb hypoxia rep growth: 3
  Sa ugtP lethal: 3
  Bead autofluor: 2137
  PrP UTR inh: -24
  BJeLR lethal: -6

O=c1[nH]c(CN2CCN(c3ccccn3)CC2)nc2c(Br)cc(Br)cc12
  RN4220 kill: 0.8
  Mtb hypoxia rep: 1
  Mtb hypoxia rep growth: 0
  Sa ugtP lethal: 1
  Bead autofluor: 3608
  PrP UTR inh: -15
  BJeLR lethal: -5

# Shown field by field: four of the compounds above.
Structure: Cc1ccccc1-n1cc(-c2ccc(Br)cc2)nc1SCC(N)=O
  RN4220 kill: nt
  Mtb hypoxia rep: nt
  Mtb hypoxia rep growth: nt
  Sa ugtP lethal: nt
  Bead autofluor: 5206
  PrP UTR inh: -44
  BJeLR lethal: 11

Structure: O=c1[nH]c(CN2CCN(c3ccccn3)CC2)nc2c(Br)cc(Br)cc12
  RN4220 kill: 0.8
  Mtb hypoxia rep: 1
  Mtb hypoxia rep growth: 0
  Sa ugtP lethal: 1
  Bead autofluor: 3608
  PrP UTR inh: -15
  BJeLR lethal: -5

Structure: O=C(O)c1cccc2c1C(=O)c1ccc(-c3ccc(Cl)c(C(F)(F)F)c3)cc1S2(=O)=O
  RN4220 kill: -8.6
  Mtb hypoxia rep: 1
  Mtb hypoxia rep growth: 10
  Sa ugtP lethal: -8
  Bead autofluor: 2896
  PrP UTR inh: -5
  BJeLR lethal: nt

Structure: COc1ccc(NC(=S)N(CCN(C)C)C(C)c2ccco2)cc1Cl (configuration not stated)
  RN4220 kill: 2.0
  Mtb hypoxia rep: -7
  Mtb hypoxia rep growth: 3
  Sa ugtP lethal: 3
  Bead autofluor: 2137
  PrP UTR inh: -24
  BJeLR lethal: -6
